RN4220 kill: S. aureus RN4220 growth inhibition | OD600, 16 h | inhibition, % (no concentration beside the values) | 0.33% of 330,000 active | AID 1259311;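 active = z-score of -3 or lower and OD600 up to 0.18 on both plates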;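 also: plate controls were untreated cells for no effect and reference antibiotic for full effect; stock transfer was 100 nL into about 80 µL; one replicate is shown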
Bead autofluor: counter-screen for toxin protease inhibitors: compound fluorescence; compound autofluorescence counterscreen, microsphere flow cytometry; stronger effect = higher value; fluorescence intensity (concentration not given with the values); 3.1% of 360,000 active; AID 624483;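 active = at least 3 SD above the mean of all compounds, about 16000 in these data; inconclusive = too few beads counted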;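 also: 100 nL of 1 mM stock went into each well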
Mtb hypoxia rep: Mtb hypoxia fluorescent reporter inhibition | fluorescence inhibition, % (concentration not given with the values) | AID 1159583 | M. tuberculosis hypoxia-regulated fluorescent reporter, fluorescence | 0.1% of 300,000 active;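 active = 35 to 45% if threefold the growth effect, above 45% if 1.5-fold the growth effect; inactive = the rest, general growth blockers included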;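 also: wells of about 50 µL received 100 nL stock; 0% = vehicle wells and 100% = reference inhibitor wells; whole bacteria with a GFP reporter of the hypoxia response; strong numbers were not always called active; many hits fall short of the cut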
Sa ugtP lethal: growth inhibition of S. aureus ugtP deletion strain; S. aureus RN4220 ugtP deletion, OD600 growth, 16 h; some inactives read as strong as hits; growth inhibition, % (test concentration not listed); 0.54% of 330,000 active; AID 1259309;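 active = z-score under -3 and OD600 up to 0.15 on both plates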;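 also: plate controls were untreated wells for no effect and antibiotic for full effect; wells of about 80 µL received 100 nL stock; the first replicate is given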
BJeLR viability: BJeLR cell viability loss; BJeLR (HRASV12) viability, CellTiter-Glo ATP luminescence, 48 h; reference of the scale not given here; inhibition, % (concentration not given with the values); 0.17% of 300,000 active; AID 1554;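 active = replicate mean above 50%; inconclusive = above 50% but judged a plate artefact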;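 also: 50 nL library stock added to about 25 µL; numbers are from one replicate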
PrP 5UTR inh: suppresses PrP 5' UTR mRNA reporter expression | cell-based PrP 5' UTR mRNA reporter, plate reader | AID 488862 | inhibition, % (concentration not given with the values) | 0.35% of 340,000 active;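 active = every replicate at 50% or more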;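 also: 0 = median of the neutral control wells; tested in H4 reporter cells; numbers are from one replicate; inactives centre near -14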
Mtb hypoxia rep growth: also measured in Mtb hypoxia rep; calls as there; growth inhibition, %; measured here: M. tuberculosis growth (absorbance);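 0% = vehicle and 100% = reference antibiotic; read after six days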
* marks the source's active call; other numbers are inactive results; u = inconclusive; x = not tested or not shown. Random draw from the library; about 3.9% have a hit in one of these screens.

SMILES | RN4220 kill | Bead autofluor | Mtb hypoxia rep | Mtb hypoxia rep growth | Sa ugtP lethal | BJeLR viability | PrP 5UTR inh
O=C(NC1CCCCC1)c1ccc(N2CCOCC2)c([N+](=O)[O-])c1 | -3.3 | 4633 | 21 | 11 | 2 | -5 | -71
CSc1nc(O)c(C(c2ccc(O)cc2)c2c(O)nc(SC)[nH]c2=O)c(=O)[nH]1 | 5.2 | 3351 | 6 | 10 | 2 | -4 | -15
CN(C)CCNC(=O)c1sc2cccc(F)c2c1Cl | 6.8 | 3923 | 12 | 17 | 2 | 2 | -9
O=C(N/N=C/c1ccco1)c1cnccn1 | x | 6210 | x | x | x | -6 | -26
COC(=O)C1CCCN1C(C(=O)NC1CCCCC1)c1ccc(Cl)cc1 (stereo not given) | 5.1 | 4430 | 9 | 7 | 4 | 4 | -29
Cc1ccc(C)c2c(SC(C)C(=O)NCc3ccco3)nc(-c3ccccc3)nc12 (stereo not given) | 3.0 | u | 1 | 8 | 3 | 2 | -4
O=C(O)c1sccc1Oc1ccc(NS(=O)(=O)c2cccc(F)c2)cc1 | 3.4 | 3144 | -9 | -10 | 17 | -6 | 0
COc1ccc(/C=C(/NC(=O)c2ccc(OC)c(OC)c2)C(=O)NCCCn2ccnc2)cc1 | 1.8 | 3254 | 0 | -5 | 0 | -7 | -21
CC(=NNC(=O)CNC(=O)COc1cccc(C)c1)c1ccco1 | 1.6 | x | -1 | -16 | 2 | x | x
COCCn1c(CCC(=O)O)ccc1-c1cccs1 | 1.2 | 2136 | -3 | 1 | 9 | -9 | 8
Cc1cccc(-c2ncc(CN3CCN(C4CCCC4)C(CCO)C3)cn2)c1 (stereo not given) | 1.9 | 2565 | -4 | -4 | 1 | 0 | -3
CC(C)c1ccc(Nc2nnc(SCC(=O)Nc3ncc(S(=O)(=O)c4ccc([N+](=O)[O-])cc4)s3)s2)cc1 | 81 | 4253 | 15 | 12 | 78 | 2 | -15
Cc1ccc(C)c(NC(=O)c2ccc3c(c2)N(Cc2ccc(F)cc2)C(=O)CS3=O)c1 (stereo not given) | -1.3 | 4935 | 2 | 3 | 10 | 3 | -7
CN(CC(=O)Nc1ccccc1Br)C(=O)CNC(=O)Cc1cccc2ccccc12 | -0.7 | 5774 | 1 | -7 | -1 | 1 | -13
CCc1ccc(NC(=O)c2ccnc(C(C)(C)C)c2)cc1 | 6.5 | 24202* | 3 | 2 | 9 | 9 | -24
CCOC(=O)C1=C(C)OC(N)=C(C#N)C1c1cc(OC)c2c(c1)OCO2 (stereo not given) | 3.5 | 3329 | x | x | -3 | -2 | -23
COc1ccc(C2=NOC(C)(c3nnc(-c4ccc(F)cc4)o3)C2)cc1 (stereo not given) | 2.4 | 3455 | 16 | 9 | -6 | -16 | -11
NC(=O)C1(N2CCCCC2)CCN(C2CC(=O)NC2=O)CC1 (stereo not given) | 5.7 | 2920 | 13 | 8 | 0 | -8 | -19
Cc1ccc(Cl)cc1NC(=O)Nc1cccs1 | 8.9 | 2352 | 5 | 2 | -18 | 6 | -10
COC(=O)Nc1ccc(S(=O)(=O)N2CCN(CCN3C(=O)C4C5C=CC(C5)C4C3=O)CC2)cc1 (stereo not given) | 4.3 | 21256* | 5 | 13 | -6 | 1 | -25
Cc1ccccc1OCc1nnc(SCC(=O)O)n1Cc1ccccc1 | 2.1 | 2611 | 11 | 3 | 8 | 11 | -35
Cn1c(=O)c2c(SCC(N)=O)nc(CC(C)(C)C)nc2n(C)c1=O | -15 | 5760 | 0 | 7 | -1 | 6 | -42
Cc1ccc2c(c1)CC1(CN2C)C(=O)NC(=O)N(c2ccc(C)c(C)c2)C1=O (stereo not given) | 4.2 | 4189 | x | x | 1 | 2 | -24
Cc1cnc(C(=O)OCC(=O)N2CCc3ccccc3C2)cn1 | 6.7 | 2952 | 9 | 7 | 9 | 2 | -19
COc1ccc(-n2c(=O)c3ccccc3n(CC(=O)Nc3cc(C)on3)c2=O)cc1OC | 2.7 | 2840 | x | x | 6 | 12 | -19
COc1ccc(C(=O)N2CCC(N3CCN(c4ccccc4)CC3)CC2)cc1OC | 4.8 | 15444 | 2 | 0 | 14 | -1 | 4
Nc1cc(=O)[nH]c(=S)n1-c1ccccc1 | 5.8 | 3406 | x | x | 1 | 1 | -6
CCOc1ccc(S(=O)(=O)N2CCC(C(=O)NCc3ccccn3)CC2)cc1 | 0.3 | 3631 | 5 | 2 | 4 | 0 | -17
CCOC(=O)CN1NC2(CCC(C)CC2)NC1=S (stereo not given) | 5.1 | 8452 | 15 | 14 | 6 | -4 | -12
CCCC(=O)N1CCc2cc(-c3nc(N)sc3C)ccc21 | 6.0 | 2887 | x | x | 2 | 5 | -65
Cc1cccc(-n2c(O)c(C=NCc3ccccn3)c3ccccc3c2=O)c1 | 0.8 | 2062 | -6 | 5 | -3 | -3 | -3
O=C(CCc1ccccc1Cl)Nc1ccc(S(=O)(=O)Nc2nccs2)cc1 | 3.1 | 4460 | 5 | 4 | -1 | x | -12
Cc1c(Cl)cccc1NC(=S)N(C)CCC#N | 0.8 | 4426 | -1 | 4 | 3 | 8 | -42
CC(=O)Nc1ccc2nc(NC(=O)COc3ccccc3C)sc2c1 | 5.6 | 4351 | 5 | 5 | 4 | 2 | -44
CCC(C(=O)O)n1c(C(F)(F)F)nc2ccccc21 (stereo not given) | 17 | 3028 | -5 | 1 | 17 | -10 | -30
Cc1scc(C(=O)NN=Cc2ccsc2)c1C | 1.1 | x | 9 | 3 | 4 | x | x
COCCSc1nnc(NC(=O)Cc2cccs2)s1 | -1.6 | 5737 | -2 | 12 | -4 | -1 | 1
Cc1ccc(C(=O)NC2CCN(Cc3ccccc3)CC2)cc1S(=O)(=O)N1CCOCC1 | 4.5 | 5862 | 6 | 4 | 4 | 7 | -12
COc1ccc([N+](=O)[O-])cc1NS(=O)(=O)c1cc(C(=O)NCc2cccnc2)ccc1Cl | -0.5 | 3383 | 8 | 10 | 21 | x | -29
COc1ccc(C(=O)N2CCN(S(=O)(=O)c3ccc4c(c3)OCCO4)CC2)cc1OC | -2.4 | 3860 | -14 | 3 | -7 | x | 3
Cc1cccc(-n2c(Cc3ccccc3)nnc2SCc2ccc([N+](=O)[O-])cc2)c1 | 25 | 2695 | 12 | -1 | -4 | -3 | -13
O=C(NN1C(=O)c2ccccc2NC1c1ccccn1)c1ccc(Br)cc1 (stereo not given) | 2.4 | 6617 | -5 | -3 | 5 | 0 | -17
O=C1CN(C(=O)COC(=O)C2CCN(S(=O)(=O)c3ccccc3C(F)(F)F)CC2)c2ccccc2N1 | -1.4 | u | 6 | 0 | 3 | 1 | -35
COc1ccccc1C(=O)NC(=O)CSc1ccc(C)c(C)c1 | 7.6 | 3981 | 1 | 3 | 9 | x | -18
O=C1Nc2ccccc2O/C1=C\c1c(F)cccc1Cl | 4.9 | 3010 | -12 | -9 | -5 | 2 | -24
COC(=O)c1cc(S(=O)(=O)N2CCN(c3cccc(OC)c3)CC2)cn1C | 1.2 | 5352 | -2 | 0 | -1 | 4 | -11
COc1cc(C=NNC(N)=S)ccc1OCC(=O)Nc1ccc(C)c(C)c1 | -2.8 | x | x | x | -17 | x | x
COc1cc(OC)cc(N2CC(C)(C)C2=O)c1 | 11 | 4705 | 4 | 0 | -4 | 10 | -20
CC1CCc2c(sc3ncnc(SCC(=O)N(C)C4CCS(=O)(=O)C4)c23)C1 (stereo not given) | 4.2 | 3744 | -2 | 1 | 3 | x | -2
COc1cc(/C=C/C(=O)OCC(=O)NNC(=O)c2cc(Cl)ccc2OC)ccc1O | 0.7 | 3785 | 7 | 14 | -10 | x | -25
Going on with the list.
SMILES | RN4220 kill | Bead autofluor | Mtb hypoxia rep | Mtb hypoxia rep growth | Sa ugtP lethal | BJeLR viability | PrP 5UTR inh
CCOC(=O)c1c(O)cc(C)[nH]c1=O | 3.5 | 4718 | -10 | 0 | 1 | -13 | -22
CC1(C)S[C@@H]2[C@H](NC(=O)[C@H](N)c3ccc(O)cc3)C(=O)N2[C@H]1C(=O)O | x | 6380 | x | x | x | 1 | -10
CCC(=O)Nc1nc(-c2ccccc2)ns1 | 1.8 | 21302* | -1 | 3 | -11 | -2 | -51
O=C(NN=Cc1cc2c(cc1Cl)OCO2)c1cc(-c2ccccc2)n[nH]1 | 13 | x | -1 | -2 | -10 | x | x
Cc1ccccc1N=Nc1c(C)[nH]n(C(N)=S)c1=O | 16 | 2492 | 5 | 4 | -11 | -10 | -24
CC(C)(C)c1ccc(C(=O)NCc2nnc(SCC(=O)NC3CCCCC3)o2)cc1 | -0.2 | 5885 | 4 | 8 | 1 | 12 | 10
COC(=O)c1sc(NC(=O)c2csc3c2CCCC3)nc1C | -2.9 | 19140* | 10 | 8 | -3 | 6 | -173
O=C(c1ccc(F)cc1F)N1CCCN(c2nc(-c3ccccc3)ns2)CC1 | 8.4 | x | 6 | -3 | 6 | -1 | 0
O=C(Nc1cccc(S(=O)(=O)NC2=NCCC2)c1)c1ccc(=O)[nH]c1 | -0.4 | 4209 | -3 | -3 | -3 | x | -7
COc1ccc(C(=O)N[C@H](C(=O)OCc2cc(=O)oc3cc(C)ccc23)C(C)C)cc1 | 6.7 | 8591 | 15 | 5 | 8 | -4 | -9

Continued, starting with the last 5 of the part before.
SMILES | RN4220 kill | Bead autofluor | Mtb hypoxia rep | Mtb hypoxia rep growth | Sa ugtP lethal | BJeLR viability | PrP 5UTR inh
CC(C)(C)c1ccc(C(=O)NCc2nnc(SCC(=O)NC3CCCCC3)o2)cc1 | -0.2 | 5885 | 4 | 8 | 1 | 12 | 10
COC(=O)c1sc(NC(=O)c2csc3c2CCCC3)nc1C | -2.9 | 19140* | 10 | 8 | -3 | 6 | -173
O=C(c1ccc(F)cc1F)N1CCCN(c2nc(-c3ccccc3)ns2)CC1 | 8.4 | x | 6 | -3 | 6 | -1 | 0
O=C(Nc1cccc(S(=O)(=O)NC2=NCCC2)c1)c1ccc(=O)[nH]c1 | -0.4 | 4209 | -3 | -3 | -3 | x | -7
COc1ccc(C(=O)N[C@H](C(=O)OCc2cc(=O)oc3cc(C)ccc23)C(C)C)cc1 | 6.7 | 8591 | 15 | 5 | 8 | -4 | -9
O=C(O)CN1CCN(Cc2ccccc2)C1=O | 3.6 | 10082 | 10 | 15 | 6 | 2 | 13
CCCCN(C(=O)c1ccc(N(C)S(=O)(=O)c2ccc(C)cc2)cc1)c1c(N)n(CCCC)c(=O)[nH]c1=O | 1.2 | u | 7 | 2 | 2 | 1 | -9
Cc1ccc(/C=C/C(=O)NCCCc2ccccc2)cc1 | x | 10566 | x | x | x | 5 | -8
CCOc1ccccc1OCCCC(=O)NNC(=O)c1nn(C)c(=O)c2ccccc12 | 9.8 | 6142 | 9 | 7 | 7 | x | -13
CCOC(=O)C(NC(=O)CC(C)C)(Nc1cc(C)on1)C(F)(F)F (stereo not given) | 3.1 | 22923* | -1 | -7 | -7 | -5 | -16
CCc1nnc(NS(=O)(=O)c2ccc(NC(=O)/C=C/c3ccc(OC)cc3OC)cc2)s1 | 8.9 | 1920 | 6 | 8 | 0 | 1 | -6
COc1cc(OC)cc(C(=O)Nc2cccc(-c3ccc(N4CCOCC4)nn3)c2)c1 | 4.7 | 6212 | 0 | -6 | 0 | 3 | -44
CC(C)c1nc2sc3c(c2c(=O)n1N)CC(C)(C)OC3 | 6.0 | 2562 | 9 | 3 | 4 | 0 | -22
O=C(COc1ccc(Cl)cc1[N+](=O)[O-])NC1CCCCC1 | 3.1 | 3168 | 14 | 12 | -3 | 3 | -100
COc1ccc(C2Nc3ccccc3C(=O)N2NS(C)(=O)=O)c(OC)c1 (stereo not given) | 4.6 | 4092 | 2 | 7 | 3 | 5 | -6
Cn1c(O)c(C=Nc2ccccc2)c(=O)n(C)c1=O | 3.1 | 2848 | 4 | -1 | 6 | -4 | -5
O=C(CSc1ncccn1)NCc1cccs1 | 7.2 | 3178 | 16 | 5 | 4 | -20 | -22
COCCCn1c(=O)c2ccccc2n(CC(=O)NC2CCCCC2)c1=O | 0.8 | 3760 | 10 | 9 | 11 | 11 | -37
COc1cccc(CN2CCNC(=O)C2CC(=O)NC2CCCCCCC2)c1 (stereo not given) | -5.3 | 5154 | -3 | -2 | -9 | 7 | 7
CC(=O)/C(=C\N(C)C)Sc1ccc(C)cc1 | 1.7 | 3560 | 12 | 11 | 4 | 7 | -1
COCCNc1ncnc2c1cnn2Cc1ccc(Cl)cc1 | -2.9 | 3339 | 17 | 13 | 11 | 11 | 2

Source: PubChem
